Screens: PubChem, several laboratories
Arbovirus anti – arbovirus infection inhibition | arbovirus infection cell-based antiviral screen | inhibition, % at 10 µM | 200,000 tested, 0.37% active | AID 1251;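 active means inhibition from about 30%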;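 further: bluetongue infection of BSR cells; cell survival read as ATP light after 72 h; 0% = infected wells without compound and 100% = uninfected wells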
Mtb bLac sens – beta-lactam sensitization of Mtb H37Rv. M. tuberculosis H37Rv growth with meropenem, percent inhibition; hits of this screen are not shown here. inhibition, % at 25 µM. 330,000 tested, 0.27% active;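 active means about 74% or more and at least 40 points above the plate without the antibiotic, then above 30% in a dose series; inconclusive means first-round hits that could not be retested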;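 further: growth measured after seven days incubation then overnight dye step; 0% = bacteria only wells and 100% = bacteria with antibiotic; twin plates without the antibiotic show which effects depend on it; some results filed as inactive read as strong as hits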
YopH inh – inhibitors of Yersinia enterocolitica YopH tyrosine phosphatase; fluorescence Ex485/Em525; inhibition, %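 (about 10 µM by stock and volumes)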; 140,000 tested, 0.16% active;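 active means inhibition of 50% or more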;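 further: controls were vehicle for no effect and minimum signal wells for full effect; inactives centre near -20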
Mtb growth – M. tuberculosis H37Rv growth inhibitors, H37Rv strain (AID 1626); M. tuberculosis H37Rv growth inhibition; higher % means a stronger effect; inhibition, % at 10 µM, or IC50 in µM where a hit was titrated; 220,000 tested, 0.95% active;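 active means confirmed in a dose series; inconclusive means inhibition above 80% but not taken into the dose series; inactive means below 80% or under 30% at every dose of the series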;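 further: bacteria incubated seven days before Alamar blue readout; 0% = bacteria only wells and 100% = bacteria with antibiotic wells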
RecA splice inh – blocks M. tuberculosis RecA intein splicing; P9WHJ3; cell-free RecA intein splicing, fluorescence; inhibition, %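 (about 9 µM by stock and volumes)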; 290,000 tested, 0.75% active; AID 2221; in the data active means inhibition above about 30%; inconclusive means no clear call, values can overlap the other calls;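 further: 0% = vehicle wells and 100% = reference inhibitor control wells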
Target sequence (P9WHJ3 whole entry, looked up, canonical isoform): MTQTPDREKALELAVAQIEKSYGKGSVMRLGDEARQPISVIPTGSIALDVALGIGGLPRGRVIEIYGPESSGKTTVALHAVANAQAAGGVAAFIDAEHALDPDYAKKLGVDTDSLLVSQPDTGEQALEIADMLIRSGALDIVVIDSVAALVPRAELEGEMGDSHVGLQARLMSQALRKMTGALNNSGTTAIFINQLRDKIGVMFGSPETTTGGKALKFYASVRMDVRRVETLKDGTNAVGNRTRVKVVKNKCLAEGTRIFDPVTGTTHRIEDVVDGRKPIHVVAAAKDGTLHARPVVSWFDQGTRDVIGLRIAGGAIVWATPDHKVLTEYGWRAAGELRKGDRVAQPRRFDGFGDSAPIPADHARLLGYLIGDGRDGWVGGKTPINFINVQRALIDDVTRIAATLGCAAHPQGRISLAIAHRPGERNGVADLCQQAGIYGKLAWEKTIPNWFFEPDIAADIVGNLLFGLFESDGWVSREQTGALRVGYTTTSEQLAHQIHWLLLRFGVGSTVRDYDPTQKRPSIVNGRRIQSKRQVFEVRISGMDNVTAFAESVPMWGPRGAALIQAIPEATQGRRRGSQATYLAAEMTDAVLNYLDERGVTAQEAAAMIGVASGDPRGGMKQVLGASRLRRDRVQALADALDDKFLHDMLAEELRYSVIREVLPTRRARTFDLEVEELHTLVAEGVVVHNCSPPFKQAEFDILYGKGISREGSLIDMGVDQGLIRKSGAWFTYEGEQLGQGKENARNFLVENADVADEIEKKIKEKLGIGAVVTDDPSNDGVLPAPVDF
Arbovirus anti repeat – further read-out of Arbovirus anti, marked with its call; inhibition, %; measured here: 10K subset replicate screen; many hits read low in the repeat;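 first of two repeat runs on a subset; 0% = infected and 100% = uninfected wells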
The depositor's hits bear a star; ? = inconclusive; / = no result given. An excerpt. The share of hits here may be higher or lower than overall.

SMILES	Arbovirus anti	Mtb bLac sens	YopH inh	Mtb growth	RecA splice inh	others
Cc1ccc(CN2C(=O)c3ccccc3NC23CCN(Cc2ccccc2)CC3)cc1	-15.7	1.3	/	2.8%	-1.1
CC(C)(C)OC(=O)NCCCCC1=CC2=CC(=O)C(C)(OC(=O)c3cnc4ccccc4n3)C(=O)C2=CO1 (stereo not given)	/	-2.8	/	-9.1%	-7.0
COc1cc(/C=C2\SC(=S)N(CC(=O)Nc3ccccn3)C2=O)cc(OC)c1OC	-8.7	59.3	-0.6	-11.4%	1.4
CCc1cc2c(=O)c(-c3nc4ccccc4[nH]3)coc2c(CN2CCC(C)CC2)c1O	3.4	/	-22.8	/	/	Arbovirus anti repeat=1.8
CC(=O)CC(=O)Nc1ccc(Nc2ccccc2)cc1	-5.5	2.9	-9.4	6.8%	-0.8
Cc1ccc(C2CC(=O)C=C(NCC(C)C)C2)cc1 (stereo not given)	10.2	-7.8	-58.2	4.8%	-0.2
CC1Cc2ccccc2N1C(=O)CSc1nc2c(c(=O)n(C)c(=O)n2C)n1Cc1ccc(F)cc1 (stereo not given)	/	15.0	30.6	-3.3%	-0.8
CCC(Oc1ccc(C)cc1)C(=O)Nc1ccc2c(c1)n(C)c(=O)n2C (stereo not given)	/	1.6	/	/	-1.2
CSc1ncccc1C(=O)OCC(=O)c1ccccc1Br	-4.4	19.9	/	-4.8%	1.2
COc1ccc(/C=N/N2C(=O)CSC2=S)cc1	-2.5	5.7	-8.5	-3.0%	-4.4
COc1ccc(CCNC(=O)COC(=O)/C=C/c2ccc(OCC#N)c(OC)c2)cc1OC	4.2	-0.9	-10.3	0.6%	-1.6
Cc1cccc(C(=O)OCC(=O)NCCCc2ccccc2)c1O	/	-4.3	/	/	1.0
COc1ccc(OC)c(-n2nnnc2SCC(=O)Nc2ccc3c(c2)OCCO3)c1	-16.9	1.4	-56.0	0.4%	2.7
CC(C)c1cc(NC(=O)C(C)(C)C)cc(C(C)C)c1O	5.8	-6.4	23.7	-11.9%	-2.1
CN1C(=O)CCC1(O)c1ccccc1 (stereo not given)	6.6	6.3	5.5	-1.5%	3.3
CC(=O)c1oc2ccccc2c1NC(=O)CCCN1C(=O)c2ccccc2C1=O	-0.6	-11.4	-55.0	-3.7%	-0.4
CCOC(=O)Cc1csc(NS(=O)(=O)Cc2ccccc2)n1	1.3	4.5	-17.9	-9.3%	1.6
CC(=O)c1cccc(S(=O)(=O)Nc2cccnc2)c1	/	-5.0	/	/	0.6
CCOCCCN1C(=O)CN(C2CCC(C)CC2)C(=O)C1c1ccc(C)cc1 (stereo not given)	4.3	5.4	/	7.1%	1.3
O=C1C2C3C=CC(C3)C2C(=O)N1CCC(=O)N1CCc2ccccc21 (stereo not given)	2.0	-9.1	-34.9	-12.5%	0.4
CCOC(=O)c1sc2nc(C)nc(SCC(=O)N(CC)C3CCS(=O)(=O)C3)c2c1C (stereo not given)	16.5	2.4	/	6.6%	-3.1
CNC(=S)NNC(=O)c1cccc(C(F)(F)F)c1	5.4	-12.4	-30.7	-4.2%	0.6
COc1cc(/C=C(\C#N)C(=O)NCc2ccccc2)ccc1OCc1ccc(C(=O)O)cc1	/	39.6	/	-3.7%	1.3
CC(C)(C)c1cc(C(C)(C)C)n(-c2ccccc2)n1	-0.7	-1.5	-38.6	-3.3%	-2.4
O=C(NCc1ccc(F)cc1)Nc1ccc(Cl)cc1	2.8	-0.1	/	2.1%	-2.3

Random excerpt: two records from the list, in no set order.
SMILES	Arbovirus anti	Mtb bLac sens	YopH inh	Mtb growth	RecA splice inh	others
Cc1ccc(C2CC(=O)C=C(NCC(C)C)C2)cc1 (stereo not given)	10.2	-7.8	-58.2	4.8%	-0.2
CCOCCCN1C(=O)CN(C2CCC(C)CC2)C(=O)C1c1ccc(C)cc1 (stereo not given)	4.3	5.4	/	7.1%	1.3

Later entries:
SMILES	Arbovirus anti	Mtb bLac sens	YopH inh	Mtb growth	RecA splice inh	others
CN1C(=O)C2(c3ccccc31)c1c(oc3ccccc3c1=O)C(=O)N2CCCO (stereo not given)	/	-6.1	/	-5.9%	-1.0
COc1ccccc1NC(=O)COC(=O)Cc1cccs1	5.0	-3.5	/	-5.1%	5.1
CCc1cccc(NC(=O)CCc2c(C)nn(-c3ccc(N4CCOCC4)nn3)c2C)c1	/	-2.5	/	/	-1.0
Cc1nn(C)cc1/C=N/NC(=O)C1(O)c2ccccc2-c2ccccc21	-4.8	-6.2	-42.0	-0.6%	7.3
COc1cccc(CNC(=O)C(CCSC)NS(=O)(=O)c2ccc3c(c2)oc(=O)n3C)c1 (stereo not given)	6.3	-1.4	-40.7	-5.1%	-2.2
O=C(NC12CC3CC(CC(C3)C1)C2)N1CCN(c2nc(-c3ccccc3)cs2)CC1	9.4	99.5	-9.6	/	1.8
CCCCn1c(N)c(N(CCC(C)C)C(=O)c2ccc([N+](=O)[O-])s2)c(=O)[nH]c1=O	/	5.9	/	/	-10.2
CC(C)(C)OC(=O)N1CCC(C(=O)N2CCOCC2)CC1	-1.6	-5.1	-12.3	-4.7%	0.8
CCOC(=O)c1cn(CC(=O)Nc2ccc(CC)cc2)nn1	-0.3	?	-14.0	-6.1%	-0.5
Cc1cc(C)nc(/N=C(\N)Nc2ccc(OCCC(C)C)cc2)n1	/	69.9	/	/	4.5
CC12CCC(C(=O)N3CCCCC3)(CC1=O)C2(C)C (stereo not given)	12.0	-6.9	24.1	1.5%	0.2
COc1cc(OC)c2c(=O)cc(-c3cccnc3)oc2c1	/	5.9	/	-11.6%	-2.6
Oc1ccc(/C=N/N2CCN(C3c4ccccc4-c4ccccc43)CC2)cc1O	/	1.2	/	-7.6%	2.0
COc1cccc(-c2ccc(SCC(=O)N3CCOCC3)nn2)c1	2.5	-3.9	/	-3.5%	2.8
CC(C)NC(=O)C1CCN(Cc2cccc(Oc3ccccc3)c2)CC1	/	1.4	/	/	-1.0
O=C(NCc1cccc(F)c1)C1CCN(S(=O)(=O)Cc2ccccc2)CC1	0.1	-1.1	3.4	-10.3%	-4.2
O=C(C1CCCN1S(=O)(=O)c1cccc2nsnc12)N1CCCCCC1 (stereo not given)	/	-7.5	/	-4.4%	0.6
COc1ccc(CNC(=O)CSc2nnc(C)n2-c2ccc(F)cc2)cc1	-3.3	-1.1	-18.0	0.5%	/
COc1cc(/C=N/NC(N)=S)ccc1OC(=O)c1ccc(C)cc1	-0.4	/	-18.6	-10.3%	-4.5
O=C(Nc1sc2c(c1C(=O)O)CCCCC2)c1ccco1	-0.3	8.0	-48.4	-0.6%	0.1	Arbovirus anti repeat=6.0
COC(=O)c1ccccc1SCc1csc(C)n1	/	-11.7	/	/	-1.1
O=C(CSc1ccc(C(F)(F)F)cc1[N+](=O)[O-])Nc1ccc2ccccc2c1	-6.8	-6.5	-9.7	6.3%	1.3
CCOC(=O)C1=C(C)C(c2ccc(OC)cc2OC)NC(=O)N1 (stereo not given)	-7.9	-4.7	-23.4	4.6%	-2.0
NC(=O)Cn1nc([N+](=O)[O-])nc1Oc1ccccc1F	-1.6	-2.9	/	4.3%	0.5
O=S(=O)(NC1CC1)c1ccc(Cl)cc1	/	-0.2	/	/	-2.0
(list continues)
SMILES	Arbovirus anti	Mtb bLac sens	YopH inh	Mtb growth	RecA splice inh	others
Cc1csc(NC(=O)/C=C/c2ccc(C)o2)n1	1.2	2.7	9.7	-3.2%	-1.4
Cc1ccc(C(=O)Nc2ccc(N3CCN(C(=O)c4ccco4)CC3)cc2)cc1	-13.2	2.1	/	1.9%	0.4
Cc1ccc(C)c(/C=N/Nc2nc3ccccc3c(=O)n2O)c1	/	-3.6	/	3.3%	-3.2
Cc1ccccc1-n1c(SCc2cccc(F)c2)nc2[nH]ncc2c1=O	-13.7	4.2	-24.9	19.6%	7.7
CNC(=S)NNC(=O)COc1ccc(C)c(C)c1	12.4	-1.0	-42.7	2.3%	1.0
CCN(CC)C(=O)Cn1c(=O)n(-c2ccccc2)c(=O)c2sccc21	5.0	-4.5	/	-4.8%	-1.1
CCN(CCn1cccn1)C(=O)c1cccc(OC2CCN(S(C)(=O)=O)CC2)c1	/	-5.4	/	/	-0.2
Cc1cc(=O)c(C(=O)c2ccccc2)c(C)o1	/	5.8	/	/	0.7
CC(CO)(CO)N=Cc1c(O)n(-c2cccc3ccccc23)c(=O)[nH]c1=O	0.3	-6.5	-4.8	-4.6%	-3.1	Arbovirus anti repeat=5.2
Cc1c(Br)cc(C(=O)N2CCCC2)c(C)c1C	1.4	-1.6	-36.2	2.8%	0.0	Arbovirus anti repeat=-0.9
COc1ccccc1CCNCc1cc2c(cc1[N+](=O)[O-])OCO2	11.1	-11.8	-11.6	1.9%	-4.3
COc1ccc(-c2nc(C)ncc2N=Nc2ccccc2)cc1	-5.1	6.6	-21.5	14.2%	1.8
O=C(CCc1nc2ccccc2s1)NC1CCOC1=O (stereo not given)	/	-2.6	/	8.0%	-2.1
CCN1CCN(C(=O)NC2CCCCC2)CC1	/	0.3	/	/	-1.6
CC(=O)NS(=O)(=O)c1ccc(NC(=O)c2ccc3c(c2)C(=O)N(CCC(C)C)C3=O)cc1	1.9	4.2	-1.9	-8.0%	1.8
O=C(NCCC1=CCCCC1)c1c(O)nc2ccccn2c1=O	/	-6.4	/	/	6.5
CS(=O)(=O)c1cccc(C(=O)Oc2ccccc2)c1	-5.4	-6.2	0.1	-7.6%	2.7
Cc1cc(C)cc(NC(=S)NCc2cccn2C)c1	-4.2	-5.0	1.4	6.5%	1.6
C=CCC1(CC=C)CCCN1C(=O)C1CCC(=O)N(CCc2ccc(OC)cc2)C1 (stereo not given)	/	5.0	/	/	2.1
CC(=O)N1c2ccccc2Oc2cc3ccccc3cc21	5.7	-0.8	30.8	5.1%	8.0
COCCCN(C(=S)Nc1cc(Cl)cc(Cl)c1)C(C)c1ccccn1 (stereo not given)	/	-1.1	/	-6.0%	8.5
Cc1ccc(-c2cc(NC(=O)CCl)n(-c3ccccc3)n2)cc1	-29.7	99.7	-1.5	/	72.7*
Cc1nc(-c2ccccc2)cc(=O)[nH]1	3.3	-8.1	-37.2	-16.2%	-2.0
Cc1cccc(NCCNc2cccc(C)c2)c1	-17.0	4.2	-5.0	-3.5%	1.0
CN(C(=O)c1cc2c(=O)n3ccccc3nc2s1)C1CCCCC1	/	-2.1	/	/	-88.9

Of the compounds above, these contain a COOH group:
SMILES	Arbovirus anti	Mtb bLac sens	YopH inh	Mtb growth	RecA splice inh	others
COc1cc(/C=C(\C#N)C(=O)NCc2ccccc2)ccc1OCc1ccc(C(=O)O)cc1	/	39.6	/	-3.7%	1.3
O=C(Nc1sc2c(c1C(=O)O)CCCCC2)c1ccco1	-0.3	8.0	-48.4	-0.6%	0.1	Arbovirus anti repeat=6.0

Following part.
SMILES	Arbovirus anti	Mtb bLac sens	YopH inh	Mtb growth	RecA splice inh	others
CNCc1c(OCc2ccccc2)ccc2ccccc12	/	-0.8	/	/	0.5
O=C(Oc1ccc(-c2nnco2)cc1)N(c1ccccc1)c1ccccc1	7.4	83.2	-0.4	20.5%	-0.2
Cc1cc(NC(=O)CSc2nc3ccsc3c(=O)n2CCCC(=O)NCCc2ccccc2)no1	-12.5	-4.5	/	-1.4%	1.2
COc1ccc(CCN=CC2=C(O)CC(C)(C)CC2=O)cc1	3.2	1.7	-6.0	-5.2%	-1.9
CCOc1ccc(N=C2SC(C(=O)Nc3ccccc3C#N)C(N)=C2C(=O)Nc2ccc(Cl)cc2)cc1 (stereo not given)	-2.5	37.2	/	79.4%	-2.3
Cc1ccc(-c2nnn(CC(=O)N(CC(=O)NC3CCCC3)c3cnc4ccccc4c3)n2)o1	7.7	-12.0	3.5	-8.1%	-1.5
COCCSc1nnc(NC(=O)C(C)(C)C)s1	-4.2	-10.1	-6.2	-6.8%	-1.8
O=C(Cc1c(F)cccc1Cl)NNC(=O)Nc1ccc2c(c1)OCO2	/	-7.2	/	/	-1.4
CCn1ncc(S(=O)(=O)N2CCN(c3cccc(OC)c3)CC2)c1C	/	-6.7	/	/	-0.8
CCOC(=O)Cn1cnc2scc(-c3ccccc3)c2c1=O	/	8.2	/	/	-3.0
CCN1CCN(c2nc(Nc3cccc(C)c3)nc(N)c2[N+](=O)[O-])CC1	-3.5	4.6	-22.7	8.3%	5.4
C/C(=C(\C#N)C(=O)NCCCN1CCOCC1)N(C)C	6.5	-14.9	-2.1	0.7%	-0.1
COc1ccc(NC(=O)c2cn3c(nc4ccccc43)c(C#N)c2C)cc1	/	2.3	/	-3.4%	1.2
COc1cc(NC(=S)NC(=O)c2ccc(C)cc2C)ccc1NC(=O)c1cccs1	-8.7	-4.7	-23.0	-5.7%	-1.2
CCN1CCN(C(c2cccs2)C(C)NC(=O)c2cccnc2)CC1 (stereo not given)	-3.2	-7.0	-33.3	11.5%	0.8
Cn1c2ccccc2c2nnc(SCC(=O)NC3CC3)nc21	/	-1.8	/	/	-0.6
Nc1c(Cl)ncnc1N/N=C/c1ccc(O)cc1	/	-2.5	/	-6.1%	-2.7
